Source: PubChem
A647 autofl – compound fluoresces in the A647 spectral region; max dye-equivalent concentration, M; 59,000 tested, under 10 active; Compound fluorescence, A647 channel (570/671 nm), Tris buffer; active means above 1 µM dye equivalent; inconclusive means 0.1 to 1 µM; inactive means 0.1 µM or less;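 also: values scaled relative to a standard on each plate; highest value over a series up to 38 µM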
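Each compound's intrinsic fluorescence at 570 nm excitation and 671 nm emission is measured across its concentration series in 100 mM Tris, pH 8.0, after 15 min at room temperature, and reported relative to an A647 curve.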
AID923 – qHTS Assay for Allosteric/Competitive Inhibitors of Caspase-1: Spectroscopic Profiling in AFC Spectral Region | compound fluorescence, AFC spectral region (405/520 nm); almost no hit is shown here | AID 923, 2007 | Potency, µM (top dose mostly 57.5 µM), without a hit: at the highest dose fluorescence increase, usual class: activators | 75,000 compounds, 1.1% hits; active = well fitted activation curve with a large enough effect; inconclusive = small, poorly fitted or top-dose-only effect;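 also: potency is read from the fitted curve at half-maximal effect; 0% is about no effect; scaled to a free AFC standard on each plate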
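Titrations up to 57 uM read every 20 sec for 3 min (405/520 nm) with 50 nM caspase 1 and 5 uM Ac-WEHD-AFC, pH 7.5 HEPES buffer. Fluorescence-vs-time intercept gave baseline, scaled against on-plate AFC standard.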
Resorufin autofl – compounds fluorescent in resorufin spectral region. max dye-equivalent concentration, M. Compound fluorescence, resorufin region 547/598 nm, buffer; stronger effect = higher value. 59,000 compounds, 0.04% hits; active = above 10 nM dye equivalent; inconclusive = 1 to 10 nM; inactive = 1 nM or less; a few of its hits are not listed in these tables; also: highest value over a series up to 38 µM
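Dye-equivalent concentration values derive from comparing each well's 547/598 nm fluorescence against resorufin standards included on every plate. Incubation was 15 min at room temperature in 100 mM Tris, pH 8.0.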
A488 autofl – A488 region autofluorescence. compound autofluorescence, A488 spectral region, dye equivalency; stronger effect = higher value. max dye equivalency, M. 59,000 compounds, 0.1% hits. AID 591; active = above 10 nM dye equivalent; inconclusive = 1 to 10 nM; inactive = 1 nM or less; about half of its hits are not listed in these tables;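 also: highest value over a series up to 38 µM; compound alone in buffer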
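Readout is A488 dye-equivalent concentration, calibrated by a per-plate six-point Alexa 488 series. Compounds in 100 mM Tris buffer pH 8.0 were incubated 15 min at room temperature. Plates were imaged using 480 nm excitation/540 nm emission filters.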
TSHR ag – agonists of human thyroid stimulating hormone receptor; P16473; HEK293-CNG-TSHR cells (CNG channel as cAMP sensor), membrane potential dye, cAMP; Potency, µM (doses to about 57.1 µM), inactives show top-dose activation, most hits filed as activators; 73,000 compounds, 0.48% hits; AID 926; active = well fitted activation curve of enough size with the parental cells flat; inconclusive = any curve in the parental cells; inactive = parental cells flat and receptor cells flat or falling; also: potency is read from the fitted curve at half-maximal effect; % of control where 0% means no effect; weak receptor curves with flat parental cells got no call and are not listed
Target sequence (P16473 whole entry, looked up): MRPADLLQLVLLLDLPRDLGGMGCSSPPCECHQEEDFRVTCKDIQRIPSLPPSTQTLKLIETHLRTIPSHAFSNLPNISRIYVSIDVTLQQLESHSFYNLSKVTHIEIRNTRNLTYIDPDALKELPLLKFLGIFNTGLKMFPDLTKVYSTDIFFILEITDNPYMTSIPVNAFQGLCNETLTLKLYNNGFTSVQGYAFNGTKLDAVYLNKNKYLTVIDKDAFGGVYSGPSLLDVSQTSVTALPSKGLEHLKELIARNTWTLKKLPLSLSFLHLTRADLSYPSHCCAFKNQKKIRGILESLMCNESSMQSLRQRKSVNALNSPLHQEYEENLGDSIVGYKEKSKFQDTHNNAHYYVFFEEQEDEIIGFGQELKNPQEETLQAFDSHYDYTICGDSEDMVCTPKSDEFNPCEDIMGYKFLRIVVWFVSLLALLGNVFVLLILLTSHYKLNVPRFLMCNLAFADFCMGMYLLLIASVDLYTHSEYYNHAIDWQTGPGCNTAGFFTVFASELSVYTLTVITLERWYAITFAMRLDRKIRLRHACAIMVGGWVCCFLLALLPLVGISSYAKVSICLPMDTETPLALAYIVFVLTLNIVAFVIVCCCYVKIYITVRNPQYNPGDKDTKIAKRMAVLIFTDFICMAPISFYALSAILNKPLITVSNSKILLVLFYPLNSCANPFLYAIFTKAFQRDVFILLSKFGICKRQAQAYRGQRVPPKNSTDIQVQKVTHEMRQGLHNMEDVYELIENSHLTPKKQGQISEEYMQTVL
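HEK 293 cells stably expressing TSHR and a modified CNG channel, with CNG-only parental cells as counterscreen, were preloaded 60 min at room temperature with membrane potential dye containing 100 uM RO 20-1724. Compound exposure was 30 min, and depolarization was read as fluorescence at 590 nm.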
* = called active by the depositor; i = inactive; ? = inconclusive; · = no result given; & = joins results of further samples; [ ] = dose if it differs, or a comment. An excerpt (hit frequency here may not be typical).

smiles	A647 autofl	AID923	Resorufin autofl	A488 autofl	TSHR ag
Cc1ccc(NC(=O)Cn2cc3c(n2)CCC(C)C3)cc1 (centres undefined)	·	-1.6%	·	·	5%
CCOC(=O)c1ccc(NC(=O)COc2ccccc2OC)cc1	1e-09	·	i	i	·
CC(C)(C)C(=O)C(CO)(Oc1ccc(Cl)cc1)n1cncn1 (centres undefined)	1.8e-08	-1.0%	i	i	·
COc1cc(C2NC(=O)c3ccccc3O2)cc(OC)c1OC (centres undefined)	2.2e-08	-0.1%	i	i	-4%
CC(=O)N=c1sc(S(N)(=O)=O)nn1C	2.8e-08&7.5e-09	0.9%	i	i	0%[25.6 µM]
CCOC(=O)N1CCC(N2Cc3cccc(C(=O)NCc4ccc5c(c4)OCO5)c3C2=O)CC1	3.9e-08	0.1%	i	i	-1%
COc1ccc(OC)c(C(=O)CSc2nnc(-c3cccnc3)n2C)c1	6.3e-09	0.4%	i	i	-7%
CCOC(=O)C1CCCN(c2c(N3CCc4ccccc4C3)c(=O)c2=O)C1 (centres undefined)	·	0.1%	·	·	19%
CCCCP(=O)(c1ccccn1)c1ccccn1	1e-09	-2.0%	i	i	1%
CC(C)(CNS(=O)(=O)c1ccc(Cl)cc1)N1CCCCC1	1e-09	3.1%	i	i	11%
CNC(=O)c1ccc2nc(NC(C)=O)sc2c1	1e-09	-1.5%	i	i	-8%
COCCn1c(=O)c(-c2ccccc2)nc2cnc(Oc3ccccc3)nc21	2.9e-09	3.8%	i	i	?
CCOc1ccccc1NC(=O)Cn1nnc(C(=O)Nc2ccc(C)cc2)c1N	1e-09	-1.2%	i	i	?
CC(C)c1[nH]c(=O)c(C#N)c2c1CSC(C)(C)C2	7.2e-08	·	i	i	·
O=C(OCc1nc2ccc(Cl)cc2n1CCO)c1ccc2c(c1)OCO2	·	1.1%	·	·	9%
Cc1nc2cc(N3CCOCC3)c(NC(=O)C3CC3)cc2c(=O)n1Cc1ccccc1	1.9e-08	-0.1%	i	i	10%
Cc1cc(NC(=O)Cn2nc(-c3ccccc3F)ccc2=O)ccc1-n1cnnn1	1.2e-09	0.1%	i	i	5%
O=C(NCCc1ccc(F)cc1)N1CCOCC1	1e-09	1.2%	i	i	1%
COc1cc(NC(=O)C2CCCN2C(=O)OCc2ccccc2)cc(OC)c1 (centres undefined)	1.3e-09	1.2%	i	i	0%[11.4 µM]
COc1ccc(OC)c(Nc2cc(C(=O)NCCCN3CCOCC3)c3ccccc3n2)c1	1.9e-08	0.9%	i	i	-5%[11.4 µM]
COCCn1c(=O)c(-c2ccc(OC)cc2)nc2cnc(OC)nc21	1e-09	5.7%	i	i	12%
CC(=O)N1CCc2c(sc(NC(=O)c3ccc4c(c3)OCCO4)c2C#N)C1	·	4.0%	·	·	6%
Cc1ccc(-c2noc(CN(C(=O)CCN3C(=O)c4ccccc4C3=O)C(C)C)n2)cc1	1e-09	-2.2%	i	i	23%
Cc1nc(SCC(=O)N2CCN(C(=O)c3ccco3)CC2)c2c(C)c(C)sc2n1	1.2e-08	-0.8%	i	i	?
CS(=O)(=O)N1CCC[C@@]2(CCN(c3ccccn3)C2)C1	8.2e-09	2.2%	i	i	3%
CC(=O)c1c(C(C)=O)c(C)n(NC(=O)c2ccncc2)c1C	1e-09	·	i	i	·
CN1CCN(c2nc(-c3cccnc3)nc3ccccc23)CC1	1.3e-09	2.7%&-0.9%	i	i	21%&16%
CCOC(=O)c1sc(NC(=O)C(CC)Sc2nccn2C)nc1C (centres undefined)	·	0.5%	·	·	8%[11.4 µM]
O=C(NCCC1=CCCCC1)c1ccc2c(=O)n3c(nc2c1)CCCCC3	·	-1.4%	·	·	?
CS(=O)(=O)c1ccc2nc(NC(=O)c3ccco3)sc2c1	·	-3.6%	·	·	-10%
CCN(CC)S(=O)(=O)c1ccc2oc(C(=O)NCc3ccc(F)cc3)c(C)c2c1	1.2e-08	1.0%	i	i	3%[11.4 µM]
COc1ccc(S(=O)(=O)N(C)CC(=O)N2CCCCC2)cc1Cl	3e-09	-3.1%	i	i	1%
Cc1cc(=O)[nH]c(SCC(=O)NCCOc2ccccc2)n1	·	0.0%	·	·	1%
CCOP(=O)(c1c(F)c(F)c(F)c(F)c1F)C(O)c1ccccc1 (centres undefined)	3.5e-08	0.5%	i	i	?
CCOCCCNS(=O)(=O)c1ccc(NC(=O)c2ccccc2)cc1	1e-09	0.5%	i	i	29%
COc1ccc(N2CCN(C(=O)c3ccc4c(c3)OCO4)CC2)cc1	·	0.4%	·	·	5%
O=C(O)/C=C\C(=O)N1Cc2cc3ccccc3nc2C1	1e-09	1.4%[11.5 µM]	i	i	-2%[11.4 µM]
Cc1ccccc1-c1cc(NCCN2CCOCC2)ncn1	1e-09	-0.5%	i	i	?
COc1ccccc1-c1nc(N2CCN(C)CC2)c2ccccc2n1	2.6e-08	1.7%	i	i	?
Cn1c(C(=O)N2CCC(C(N)=O)CC2)cc2c(=O)n(C)c3ccccc3c21	·	0.9%	·	·	2%
Cc1ccc(Cn2c(SCC(=O)Nc3cc(C)on3)nc3ccccc3c2=O)cc1	3.3e-08	-0.9%	i	i	-1%
O=C(NCc1ccco1)C1CCN(S(=O)(=O)N2CCOCC2)CC1	1e-09	0.3%	i	i	-1%
CC1CCCCN1C(=O)CSc1nnc(-c2c[nH]c3ccccc23)o1 (centres undefined)	9.5e-09	-0.4%	i	i	2%
Cc1cn2c(-c3cccnc3)nnc2s1	1.2e-08	1.4%	i	i	10%
CCOc1ccc(OCc2cccc(C(=O)N3CCCC3)c2)cc1	1e-09	2.7%	i	i	21%
CCOc1ccc(-c2csc(NC(=O)C3CCCO3)n2)cc1 (centres undefined)	1.3e-08	-3.1%	i	i	3%
CCCC(=O)Nc1cccc(NC(=O)CN2CCN(c3ccccc3OC)CC2)c1	1e-09	0.3%	i	i	2%
O=C(NCC(c1cccnc1)N1CCOCC1)c1ccco1 (centres undefined)	1.9e-08	-0.2%	i	i	5%
O=C(Cn1cnc2c(nnn2-c2ccc(F)cc2)c1=O)N1CCCc2ccccc21	1e-09	7.4%	i	i	12%
Cc1nn2c(NCCCN3CCOCC3)c3c(nc2c1-c1ccccc1)CCC3	1e-09	-0.9%	i	i	-17%
COc1ccc(C(=O)Nc2cc(C)on2)cc1	·	-0.4%	·	·	0%[11.4 µM]
Cc1c(C(=O)NCc2ccc3c(c2)OCO3)oc2ccc(S(=O)(=O)N3CCC(C)CC3)cc12	8.7e-09	0.6%	i	i	11%[11.4 µM]
CCOc1cc2[nH]c(=O)n(CCCCC(=O)NC3CCCCCC3)c(=O)c2cc1OCC	4e-09	1.3%	i	i	3%
O=C(CCS(=O)(=O)c1cccc2nsnc12)N1CC(=O)N(CCc2ccccc2)C(=O)C1	1.1e-09	1.3%	i	i	14%
Clc1ccc([C@H](Cn2ccnc2)OCc2csc3c(Cl)cccc23)c(Cl)c1	1e-09	6.7%[25.7 µM]	i	i	4%[25.6 µM]
c1ccc(OCc2nc3ccccc3s2)cc1	3.9e-09	-1.6%	i	i	12%
CN(C)c1cc2c(Nc3ccc4c(cnn4Cc4ccccc4)c3)ncnc2cn1	3e-08	-2.6%	i	i	-4%
COc1ccc(C(NC(=O)CNC(C)=O)C(=O)Nc2ccc3c(c2)OCCO3)cc1 (centres undefined)	1e-09	0.9%	i	i	?
COc1ccc(CNn2c(C)nc3ccccc3c2=O)cc1	2.1e-08	-0.4%	i	i	4%
CS(C)(=O)=NS(=O)(=O)c1ccc(Cl)cc1	1e-09	-0.3%	i	i	-3%

Among those listed so far, two have a cyano group.
smiles	A647 autofl	AID923	Resorufin autofl	A488 autofl	TSHR ag
CC(C)c1[nH]c(=O)c(C#N)c2c1CSC(C)(C)C2	7.2e-08	·	i	i	·
CC(=O)N1CCc2c(sc(NC(=O)c3ccc4c(c3)OCCO4)c2C#N)C1	·	4.0%	·	·	6%

(continued)
smiles	A647 autofl	AID923	Resorufin autofl	A488 autofl	TSHR ag
COc1ccc2cc(CN(Cc3ccco3)Cc3nnnn3C3CCCCC3)c(=O)[nH]c2c1	6.3e-09	1.4%	i	i	?
CCOC(=O)CCCNC(=O)CCNC(=O)c1ccc(OC(C)C)cc1	·	1.2%	·	·	6%
NCCC[C@@](N)(C(=O)O)C(F)F	3.8e-08	-1.1%	i	i	9%
Cn1c(=O)[nH]c(=O)c2c1nc(Br)n2Cc1ccccc1F	9.2e-09	-3.0%	i	i	1%
COc1ccc(C)cc1NC(=O)CN1CCN(c2ccccc2F)CC1	4.5e-08	0.6%	i	i	?
O=C1c2oc3ccccc3c(=O)c2C(c2cccnc2)N1Cc1ccco1 (centres undefined)	1.2e-08	1.2%	i	i	?
CNC(=O)CC(C(=O)O)c1ccc(OCC(C)C)cc1 (centres undefined)	6.5e-09	-1.9%	i	i	4%
CCc1nnc(NC(=O)C(NS(=O)(=O)c2ccc3c(c2)OCCO3)C(C)C)s1 (centres undefined)	1e-09	0.6%	i	i	21%
Cc1ccc(O)c(-c2cc(-c3ccccc3C)[nH]n2)c1	1e-09	0.1%	i	i	1%
Cc1c(C(=O)O)oc2ccc(S(=O)(=O)N(CC(C)C)CC(C)C)cc12	1.8e-08	-0.4%	i	i	1%[11.4 µM]
CCOC(=O)N1CCN(Cc2oc(CO)cc(=O)c2O)CC1	3.3e-09	-1.8%	i	i	1%
CCCn1c(=O)c2ccccc2n2c(SCC(=O)NCc3cccs3)nnc12	2.7e-08	0.0%	i	i	?
O=C(c1cccc(F)c1)n1nnc2ccccc21	4.2e-09	1.4%	i	i	5%
O=C(Nc1ccccc1)c1ccc(S(=O)(=O)N2CCCCC2)cc1	·	-1.7%	·	·	-1%
O=C(NCc1ccc2c(c1)OCO2)c1cc(-c2ccccc2)on1	2.2e-08	0.2%	i	i	10%
CC(C)(C)NC(=O)C1CCN(C(=O)c2ccc(Br)cc2)CC1	2.8e-08	-1.0%	i	i	4%
CCn1c(SCC(=O)Nc2cc(C)on2)nc2c1c(=O)n(C)c(=O)n2C	2e-08	0.5%	i	i	8%
COc1ccc(Oc2ncc3nc(-c4ccc(OC)cc4)c(=O)n(CCC#N)c3n2)cc1	5.2e-09	20µM*	i	i	?
COc1ccc2c(c1OC)C(=O)N(c1cccc(C)c1)C2	1.3e-09	0.5%	i	i	·
COc1cccc(-c2nnc(SCC(=O)N3CCCC3=O)n2-c2ccccc2)c1	1.6e-08	-1.6%	i	i	?
O=C(CCS(=O)(=O)c1cccs1)N1CCN(c2ccc(F)cc2)CC1	1.8e-09	0.4%	i	i	26%
CC(C)=CCC/C(C)=C/CO/N=C1/C[C@@H](O)[C@@H](O)[C@@H]2[C@H]3C(=O)N(c4ccc(F)cc4F)C(=O)[C@@H]3CC[C@@H]12	·	-0.1%[11.5 µM]	·	·	-11%[11.4 µM]
